# Screens deposited in PubChem by National Center for Advancing Translational Sciences (NCATS).
# VACV mCherry inh: vaccinia inhibition (mCherry reporter); Vaccinia virus mCherry reporter infection, fluorescence; about a quarter of the inactives have no number; Potency, µM (doses to about 36.5 µM), for inactives: top-dose activity change, negative = inhibition, actives largely listed as inhibitors; 0.63% of 310,000 active; active = well fitted inhibition curve with a large enough effect; inconclusive = small, poorly fitted or top-dose-only effect; inactive = no such curve, though single readings can be large or run the other way; tested in A549 cells; note: nearly all actives have a fitted effect of over 35% in size; inactives centre near -10
# VACV Venus inh: vaccinia inhibition (Venus reporter); Potency, µM (titrated, usually from 36.5 µM), inactives show at the top dose activity change, negative = inhibition, actives largely listed as inhibitors; Vaccinia virus Venus reporter expression, fluorescence; 0.46% of 330,000 active; active means well fitted inhibition curve with a large enough effect; inconclusive means small, poorly fitted or top-dose-only effect; inactive means no such curve, though single readings can be large or run the other way; tested in A549 cells; note: nearly all actives have a fitted effect of over 30% in size; inactives centre near -10
# Starred values were filed as active, the others as inactive; i = inactive; ? = inconclusive; / = no result given; & = joins results of further samples; [ ] = another dose, or the depositor's remark. % is set by controls: 0 for no effect and ±100 for the full control effect; potency is the fitted concentration of half-maximal effect.
SMILES,VACV mCherry inh,VACV Venus inh
COc1ccc(C(=O)N2CCC(C(=O)NCc3ccccn3)CC2)cc1,-12%,-11%
O=C1N/C(=C\c2ccccc2)c2ccccc21,-13%,-20%
CCOc1nc(Oc2cccc(C(=O)O)c2)nc(Oc2cccc(C(=O)O)c2)n1,/,-23%
CC1CCN(S(=O)(=O)c2ccc3[nH]cc(C(=O)NCc4ccc(F)cc4)c(=O)c3c2)CC1,1%,6%
CCOc1cc(Br)c(C=O)cc1OCC,5%,4%
O=C(CSc1ncc(C(F)(F)F)cc1Cl)N1CCN(S(=O)(=O)c2ccc(Cl)cc2)CC1,?,?
S=c1[nH]nc(-c2cnccn2)n1-c1ccccc1,/,-3%
CC(=O)N1c2c(cc(Br)cc2S(=O)(=O)N2CCCCC2)CC1C (centres undefined),-19%,-7%
N#C/C(=C\c1ccccc1)c1nc2ncccc2[nH]1,/,-12%
CC(=O)c1cc(-c2ccc(F)cc2)n(CCC(=O)Nc2cc(C)[nH]n2)c1C,i,-17%
CC(C)(C)c1ccc(S(=O)(=O)N2CCCCC2)cc1,-8%,-9%
O=C(CN1CCCCC1)Nc1ccc(S(=O)(=O)c2ccc(NC(=O)CN3CCCCC3)cc2)cc1,-3%,7%
C/C(=N/NC(=O)CSCc1ccc(Cl)cc1)c1cccc(NC(=O)c2ccccc2)c1,i,-13%
COc1cccc(CNCCCSc2nnnn2C)c1,-6%,-10%
CCOc1cc(CNCCO)cc(Br)c1OCc1ccccc1Cl,-9%[1.46 µM],10µM*

# Three compounds out of the list, sorted by heavy-atom count, rising.
SMILES,VACV mCherry inh,VACV Venus inh
CCOc1cc(Br)c(C=O)cc1OCC,5%,4%
S=c1[nH]nc(-c2cnccn2)n1-c1ccccc1,/,-3%
CCOc1nc(Oc2cccc(C(=O)O)c2)nc(Oc2cccc(C(=O)O)c2)n1,/,-23%

# (list continues)
SMILES,VACV mCherry inh,VACV Venus inh
CCC(=O)N(Cc1cc2cc(OC)ccc2[nH]c1=O)c1cc(C)ccc1C,?,-26%
O=C(NCCc1c[nH]c2ccccc12)c1cc(Cl)c2c(c1)OCO2,-3%,-18%
O=C(O)CCCN=C1NC2(CCCC2)Cc2ccccc21,i,-1%
CCOc1ccc(-n2c(=O)c3c(C)c(C)sc3n(Cc3ccc(C(C)(C)C)cc3)c2=O)cc1,-5%,-15%
Cc1csc(SCC(=O)N(C)CC(=O)Nc2ccccc2Cl)n1,-17%,-4%
COc1ccc(NC2CC(=O)N(c3cccc([N+](=O)[O-])c3)C2=O)cc1 (centres undefined),i,-5%
c1ccc2c(N3CCCCC3)nc(N3CCOCC3)nc2c1,-5%,-7%
Cc1ccc(Nc2c(-c3cc(Br)ccc3F)nc3cc(C)ccn23)cc1,-14%,-6%
O=C1c2cccc3c([N+](=O)[O-])ccc(c23)C(=O)N1c1ccc(Cl)cn1,-10%,36%[activator]
COc1ccc(OC)c(C(=O)c2ccc(Cl)cc2)c1,-10%,-8%
O=C(NCC1Cc2cc(F)cc(-c3cccnc3)c2O1)c1cnn(-c2ccccc2)c1 (centres undefined),17%,17%
O=S1(=O)CCOCCCN1Cc1ccccc1F,i,-15%&-11%
Cc1cccc(Cn2c(C)nc3ccc([N+](=O)[O-])cc3c2=O)c1,-2%,-5%
CNC(=S)NNc1nc(-c2ccccc2)c2cc(Cl)ccc2n1,?,21%
COc1ccc(/C=C/c2nc(C#N)c(N3CCC(C)CC3)o2)cc1OC,-12%,-19%
CC[C@H](C)[C@@H](CNC)NC[C@@H](Cc1ccc(O)cc1)NCC(C)(C)C,?,-5%
CC(=O)Nc1ccc(NC(=O)c2ccc(-n3c(C)ccc3C)cc2)cc1,-6%,-15%
CCCn1cc(S(=O)(=O)c2ccccc2)c(=O)c2cc(F)c(N3CCCCC3)cc21,-8%,-17%
COc1ccc(C(=O)NCC(c2ccc3c(c2)OCO3)N2CCN(c3ccccc3F)CC2)cc1 (centres undefined),-17%,-18%
CN(Cc1ccco1)C(=O)c1cc(NC(=O)C2CCC2)c2c(c1)nc(-c1ccncc1)n2C,-7%,-7%
COc1ccc(C2c3c(n(C)c4ccccc34)C(=O)N2CC(=O)Nc2cccc(Cl)c2C)cc1 (centres undefined),i,-12%
CC(C(=O)Nc1ccc(S(=O)(=O)N2CCOCC2)cc1)N1CCN(c2ccccn2)CC1 (centres undefined),-4%,-4%
Cc1ccc(NC(=O)CCl)c(C)c1,?,?
O=C(Nc1ccccn1)c1ccc(S(=O)(=O)c2ccc(Cl)cc2)cc1,-15%,-17%
CCN(CC)C(=O)C1CCCN(c2ccc([N+](=O)[O-])cc2[N+](=O)[O-])C1 (centres undefined),-21%,-20%
O=C(O)c1cc(-c2ccc(C(F)(F)F)cc2)nc2n[nH]c(-c3ccccc3)c12,-10%,-10%
CCCn1nc(NC(=O)CC(C)C)c2cc3cccc(C)c3nc21,-8%,-10%
COc1ccc(CN2CCNC(=O)C2CC(=O)N(C)Cc2ccccn2)cc1OC (centres undefined),-6%,-17%
CCOC(=O)c1c(C)[nH]c(CCC(=O)Nc2ccccc2C(F)(F)F)c1C,-11%,-10%
CCn1c2ccccc2c2cc(NC(=O)C/C(C)=N/NC(=O)c3ccccc3N)ccc21,?,-22%
CCOC1=C2[C@@H](CN(S(=O)(=O)c3ccc(C)cc3)[C@H]2c2ccccc2)[C@H]2C(=O)N(Cc3ccccc3)C(=O)[C@H]2C1,i,-14%
COc1ccc(C)cc1Nc1cc(C)nc(C)n1,-14%,-4%
N#Cc1ccccc1OCCCNC1CCCC1,-14%,-14%
O=C(CN1C(=O)NC2(CCCCCC2)C1=O)Nc1ccc2c(c1)CCC2,i,-23%
CCCCN1C(C(=O)Nc2ncccn2)=C(O)c2ccccc2S1(=O)=O,-8%,-7%
Cc1onc(-c2ccccc2Cl)c1C(=O)Nc1nnc(-c2ccc(Cl)cc2Cl)s1,i,-10%
CCC(CO)Oc1cc(NC(=O)Cc2ccccc2)c2ncn(C(C)C)c2c1 (centres undefined),-9%,-3%
NC(=O)c1nsc(C(=O)N(CC(=O)NCc2ccc3c(c2)OCO3)C2CCCC2)c1N,-4%,-19%
Cc1ccc(CNc2ncnc3[nH]ncc23)cc1,-15%,-5%
COc1ccc(C2OCC(C)(C)CO2)cc1OC,i,-13%
COc1ccc(C(=O)NC(=S)NC2CCSC2=O)cc1 (centres undefined),-13%,-8%
COc1ccc2cc(CN(CC3COCCO3)S(=O)(=O)c3ccc(Cl)cc3)c(=O)[nH]c2c1 (centres undefined),/,-11%
CSc1nc(Cl)c(Br)c(N2CC2)n1,-4%,2%
Cc1ccc(CN2C(=O)c3ccccc3Sc3ccc(C(=O)NCc4ccco4)cc32)cc1,-15%,-7%
CCC(=O)N1CCCC1(C)C(=O)Nc1ccc2nc(C)ccc2c1 (centres undefined),-13%,3%
Cc1nc(CC(C)C)cc(C(=O)N2CCCC(Nc3ccc(C)c(C)c3)C2)n1 (centres undefined),i,-15%
O=C1CCC(C(=O)Nc2cccc(Oc3ccccc3)c2)=NN1,-16%,-10%
c1ccc(CO/N=C(\c2ccc(C3CC3)nc2)C2CC2)cc1,-22%,-13%
Nc1n[nH]c(-c2ccc(Br)cc2)c1Cl,?,?
CC1ON=C(c2cccc3ccccc23)N(C)C1=O (centres undefined),12%,11%
C/C(=N/O)c1c(O)c(C)c(-c2ccccc2)n(-c2ccccc2)c1=O,-1%,-16%
CCCCC(=O)N(C)c1c(C)nc2ccc(C(=O)N(C)CCN(C)C)cn12,-5%,5%
CN1CCc2c(sc(N)c2C(=O)c2ccc(Cl)cc2)C1,-13%,-11%
CCOc1ncccc1C(=O)N(CC)CC(=O)Nc1ccc(NC(C)=O)cc1,i,-17%
COc1ccc(C2=NN(C(=O)CSc3ncccn3)C(c3ccc(C)cc3)C2)cc1 (centres undefined),?,?
CCN(CC(=O)Nc1c(F)cccc1F)C(=O)c1ccc(C2SCCS2)cc1,-29%,-22%
COc1ccc(/C(C)=N/Nc2nc3ccccc3nc2C)cc1,?,-4%
COc1ccc(-n2c(O)c(C(C)=NCc3ccco3)c(=O)[nH]c2=O)cc1,-13%,-5%
COc1ccc(CNC(=O)C2=C(C)C(=O)OC23CCC(C)CC3)cc1 (centres undefined),i,-5%
CCOC(=O)C(O)(c1ccc(N)c(OC)c1)C(F)(F)F (centres undefined),-18%,-7%
# Next records follow.
SMILES,VACV mCherry inh,VACV Venus inh
COC(=O)c1ccc(COC(=O)CNC(=O)CNC(=O)c2ccc(OC)cc2)cc1,i,-8%
CCCCN1C2CCCC1CC(NC(=O)c1cccc(OC)c1)C2 (centres undefined),-7%,-8%
CCCn1c(=O)n(C)c(=O)c2c(SC(C)C(=O)NCC3CCCO3)nc(CC(C)C)nc21 (centres undefined),-15%,-11%
COc1cc(NC(=O)COc2ccc(F)cc2)nc(OC)n1,-12%,-7%
O=C(CN1C(=O)NC2(CCCCCCC2)C1=O)NC1CCCc2ccccc21 (centres undefined),-15%,-10%
CC1(C)CCCC2(C)C(OCCO)=CC(=O)C=C12 (centres undefined),i,-8%
O=C(NCc1nnc2n1CCN(Cc1cc3c(cc1Cl)OCO3)CC2)C1CCOC1 (centres undefined),-14%,-9%
CCOc1ccc(N2CC(C(=O)Nc3nnc(Cc4ccccc4)s3)CC2=O)cc1 (centres undefined),2%,-2%
CC(C)(C)NC(=O)CSc1nnc(CN2CCCCCC2=O)n1-c1ccccn1,-2%,-8%
Cn1c(SCC(=O)Nc2ccccc2)nnc1-c1ccccc1,-3%,-7%
COc1cccc(CNCCc2c[nH]c3ccccc23)c1OCc1ccccc1F,10µM*,10µM*
CC(=O)N/C(=C/c1ccc([N+](=O)[O-])cc1)C(=O)O,12%,-3%
COc1cc(CNC(=O)c2ccc3c(c2)c(C)c(C)n3Cc2cccc(C)c2)cc(OC)c1OC,-25%,-4%
CN(C)C(CNC(=O)c1ccc(S(=O)(=O)Nc2ccccc2F)cc1)c1ccco1 (centres undefined),-14%,-7%
N#Cc1ccsc1NC(=O)CN1CCN(S(=O)(=O)c2ccc3ccccc3c2)CC1,?,-28%
Cc1ccc(OCCn2cc(/C=C3\C(=O)NN(c4ccccc4)C3=O)c3ccccc32)cc1,i,-10%
CC(C)CC1Nc2ncnc(N3CCOCC3)c2N(Cc2ccc(Cl)cc2)C1=O (centres undefined),-4%,-16%&-7%
O=C(CN1C(=O)NC2(CCCC2)C1=O)NNC(=O)c1ccc(F)cc1,-10%,-1%
COc1ccc(CN(C)C(=O)c2cccc(S(=O)(=O)NCc3ccccc3)c2)cc1F,i,-6%
CCC(CC)c1nn2c(=O)cc(COc3ccc(NC(=O)c4cccc(Cl)c4)cc3)nc2s1,-4%,-7%
OC1CC(c2ccco2)NC2(CCCCC2)C1 (centres undefined),i,-2%
CC(C)(C)OC(=O)N1CCCN(C(=O)c2ccc(Cl)cc2)CC1,i,-9%
CCOC(=O)c1ccccc1OCc1cc(C2Nc3ccccc3C(=O)N2c2cccc3ccccc23)ccc1OC (centres undefined),38%[activator],-3%
N#Cc1ccc(NC(=O)COC(=O)C2=COCCO2)cc1,7%[1.46 µM],-15%
COC(=O)c1c(NC(=O)CC2Sc3ccc(C(F)(F)F)cc3NC2=O)sc(C)c1C (centres undefined),-11%,-10%
Cc1ccc(C)c(NC(=O)COc2coc(CN3CCc4ccccc4C3)cc2=O)c1,?,-17%
CCCCN(CCCC)Cc1cc(=O)oc2cc(OC)c(Cl)cc12,4%,-3%
Cc1cc(NC(=O)CSc2nc(C3CC3)nc3sc4c(c23)CCC(C)C4)no1 (centres undefined),-6%,-9%
COC(=O)[C@@]12C[C@@H](CC(=O)NCCCCc3ccccc3)C(=O)N(CCc3ccc(OC)c(OC)c3)C1=CCC(C)(C)C2,?,?

# Among those listed so far, 18 contain fluorine:
SMILES,VACV mCherry inh,VACV Venus inh
CC1CCN(S(=O)(=O)c2ccc3[nH]cc(C(=O)NCc4ccc(F)cc4)c(=O)c3c2)CC1,1%,6%
O=C(CSc1ncc(C(F)(F)F)cc1Cl)N1CCN(S(=O)(=O)c2ccc(Cl)cc2)CC1,?,?
CC(=O)c1cc(-c2ccc(F)cc2)n(CCC(=O)Nc2cc(C)[nH]n2)c1C,i,-17%
Cc1ccc(Nc2c(-c3cc(Br)ccc3F)nc3cc(C)ccn23)cc1,-14%,-6%
O=C(NCC1Cc2cc(F)cc(-c3cccnc3)c2O1)c1cnn(-c2ccccc2)c1 (centres undefined),17%,17%
O=S1(=O)CCOCCCN1Cc1ccccc1F,i,-15%&-11%
CCCn1cc(S(=O)(=O)c2ccccc2)c(=O)c2cc(F)c(N3CCCCC3)cc21,-8%,-17%
COc1ccc(C(=O)NCC(c2ccc3c(c2)OCO3)N2CCN(c3ccccc3F)CC2)cc1 (centres undefined),-17%,-18%
O=C(O)c1cc(-c2ccc(C(F)(F)F)cc2)nc2n[nH]c(-c3ccccc3)c12,-10%,-10%
CCOC(=O)c1c(C)[nH]c(CCC(=O)Nc2ccccc2C(F)(F)F)c1C,-11%,-10%
CCN(CC(=O)Nc1c(F)cccc1F)C(=O)c1ccc(C2SCCS2)cc1,-29%,-22%
CCOC(=O)C(O)(c1ccc(N)c(OC)c1)C(F)(F)F (centres undefined),-18%,-7%
COc1cc(NC(=O)COc2ccc(F)cc2)nc(OC)n1,-12%,-7%
COc1cccc(CNCCc2c[nH]c3ccccc23)c1OCc1ccccc1F,10µM*,10µM*
CN(C)C(CNC(=O)c1ccc(S(=O)(=O)Nc2ccccc2F)cc1)c1ccco1 (centres undefined),-14%,-7%
O=C(CN1C(=O)NC2(CCCC2)C1=O)NNC(=O)c1ccc(F)cc1,-10%,-1%
COc1ccc(CN(C)C(=O)c2cccc(S(=O)(=O)NCc3ccccc3)c2)cc1F,i,-6%
COC(=O)c1c(NC(=O)CC2Sc3ccc(C(F)(F)F)cc3NC2=O)sc(C)c1C (centres undefined),-11%,-10%
